# HPGD inh – HPGD (human) dehydrogenase inhibition | 4.3% of 150,000 active | Potency, µM, for the others: top-dose activity change, negative = inhibition, hits mostly inhibitors | purified HPGD, NADH fluorescence kinetic, PGE2 substrate | AID 894 | P15428; active = well fitted inhibition curve with a large enough effect (not every such curve was filed as active); inconclusive = small, poorly fitted or top-dose-only effect, or another doubt; inactive = no such curve, though single readings can be large or run the other way;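 further: top concentration of the series not given in the record; plate controls included wells without enzyme; inactives centre near -10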
# Target sequence (P15428 whole entry, looked up): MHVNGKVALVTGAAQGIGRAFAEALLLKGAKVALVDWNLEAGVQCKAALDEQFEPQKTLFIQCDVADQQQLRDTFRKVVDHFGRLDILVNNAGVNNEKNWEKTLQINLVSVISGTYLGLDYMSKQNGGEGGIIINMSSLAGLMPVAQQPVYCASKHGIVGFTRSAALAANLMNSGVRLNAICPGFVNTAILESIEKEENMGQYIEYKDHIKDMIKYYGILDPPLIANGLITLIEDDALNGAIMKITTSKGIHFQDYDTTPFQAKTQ
#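 NADH formation kinetics: reaction with 30 uM PGE2 and 1 mM NAD+ (final), 20 nM enzyme, Tris-HCl pH 8 with Tween 20, after 15 min compound preincubation at room temperature. Fluorescence change, last versus first of five reads.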
# Starred values were filed as active, the others as inactive; ? = inconclusive; & = joins results of further samples. On the % scale 0 is the no-effect control and ±100 the full control effect; potency means the concentration at half of the fitted maximal effect. Only part of the results is shown; count on the stated rates, not on these rows.
SMILES,HPGD inh
CCN1CCN(c2cc(C)c3cc(NC(=O)c4ccc(OC)c(OC)c4)ccc3n2)CC1,-27.5%
O=C(/C=C/c1cccc([N+](=O)[O-])c1)N1CCN(c2ccccc2F)CC1,-2.2%
Cc1cc(=O)n2ccccc2c1C#N,?
CCOc1ccc(N2C(=O)CC(Sc3nc(-c4cccs4)cc(C(F)(F)F)c3C#N)C2=O)cc1 (configuration not stated),?
CCc1ccc(N2C(=O)c3cc(N4CCOCC4)c([N+](=O)[O-])cc3C2=O)cc1,-3.9%
CC(C)c1ccc(NC(=O)CCNS(=O)(=O)c2cccc3nsnc23)cc1,-5.4%
CCOc1ccc2ccccc2c1C(=O)Nc1cc(=O)n(C)c(=O)n1C,-11.9%
CC(O)C1C(=O)OC2(C)CC(C)(C)NC(=S)N12 (configuration not stated),-12.1%
CC1=C(C(=O)OC(C)C)C(c2ccccc2)NC(=S)N1C (configuration not stated),-10.9%
Cc1cc(S(=O)(=O)Nc2ccc(C(=O)N3CCN(C(=O)c4ccco4)CC3)cc2)ccc1F,-18.2%
COc1ccccc1Oc1nc(-c2ccccc2)cc(C)c1S(C)(=O)=O,-19.8%
C[Si](C)(C)Cl,-6.5%

# Next section (5 carried over from the part before).
SMILES,HPGD inh
CC(O)C1C(=O)OC2(C)CC(C)(C)NC(=S)N12 (configuration not stated),-12.1%
CC1=C(C(=O)OC(C)C)C(c2ccccc2)NC(=S)N1C (configuration not stated),-10.9%
Cc1cc(S(=O)(=O)Nc2ccc(C(=O)N3CCN(C(=O)c4ccco4)CC3)cc2)ccc1F,-18.2%
COc1ccccc1Oc1nc(-c2ccccc2)cc(C)c1S(C)(=O)=O,-19.8%
C[Si](C)(C)Cl,-6.5%
CCCn1c(=N)n(CC(=O)C(C)(C)C)c2ccccc21,-24.4%
O=C1CCCC2=C1C(c1ccc(Cl)cc1)n1c(s/c(=C\c3ccc4ccncc4c3)c1=O)=N2 (configuration not stated),-12.4%
CCC(=O)NC(NC(=S)Nc1ccc(S(N)(=O)=O)cc1)C(Cl)(Cl)Cl (configuration not stated),-7.9%
FC(F)(F)c1ccc(Cl)c(NC(=S)N/N=C/c2ccccc2C(F)(F)F)c1,-21.3%
NC(=O)C1CCCN(C(=O)NC2CCCCC2)C1 (configuration not stated),-7.0%
Nc1ncnc2nn([C@H]3O[C@@H](CO)[C@@H](O)[C@H]3O)nc12,-13.2%
C=CCn1c(P(=O)(O)c2ccccc2)nc2ccccc21,-19.8%
O=C(Nc1ccc(Cl)cc1)Nc1cc(S(=O)(=O)N2CCOCC2)ccc1N1CCCC1,?
Cc1cc2cc(CN(Cc3cccs3)C(c3nnnn3C(C)(C)C)C(C)C)c3nnnn3c2cc1C (configuration not stated),-20.3%
O=S(=O)(Nc1ccc2c(c1)OCCO2)c1cccc2nsnc12,-13.3%
CC(=O)NC(CC(=O)Nc1ccc(S(=O)(=O)N2CCCC2)cc1)c1ccccc1 (configuration not stated),-15.5%
C/C(Cl)=C/Cn1c(NCCN(C)C)nc2c1c(=O)n(C)c(=O)n2C,2.6%

# 6 of the compounds above, tab-delimited:
structure	HPGD inh
FC(F)(F)c1ccc(Cl)c(NC(=S)N/N=C/c2ccccc2C(F)(F)F)c1	-21.3%
NC(=O)C1CCCN(C(=O)NC2CCCCC2)C1 (configuration not stated)	-7.0%
Nc1ncnc2nn([C@H]3O[C@@H](CO)[C@@H](O)[C@H]3O)nc12	-13.2%
C=CCn1c(P(=O)(O)c2ccccc2)nc2ccccc21	-19.8%
O=C(Nc1ccc(Cl)cc1)Nc1cc(S(=O)(=O)N2CCOCC2)ccc1N1CCCC1	?
Cc1cc2cc(CN(Cc3cccs3)C(c3nnnn3C(C)(C)C)C(C)C)c3nnnn3c2cc1C (configuration not stated)	-20.3%

# Following part
SMILES,HPGD inh
COCCNCCCCOc1c(Cl)cc(C)cc1Br,0.6%
Clc1ccc(-c2nnc(SCc3cn4ccsc4n3)n2CC2CCCO2)cc1 (configuration not stated),3.5%
COc1ccc(CN[C@H](C)C(=O)O)cc1,3.9%
CC(C)CCCC(C)C1CCC2C3CC(O)[C@@]4(O)CC(O)CC[C@@]4(C)C3CC[C@@]12C (some centres not stated),-19.5%
Cc1ccc(S(=O)(=O)NC(=O)Nc2ncn[nH]2)cc1,-9.1%
CCN1C(=O)N[C@H](c2ccccc2)C(C(C)=O)=C1C,-4.4%
O=C(CSc1ncn(-c2ccccc2)n1)N1CCN(c2ccccc2)CC1,28.2µM*
CC(C)CC(/C(O)=C(\C#N)c1nc2ccccc2[nH]1)N1C(=O)c2ccccc2C1=O (configuration not stated),-17.4%
Cc1ccc(-c2cc3nc(-c4ccccc4)cc(N4CCC5(CC4)OCCO5)n3n2)cc1,?
COCCNC(=O)CN1CCC(NC(=O)Nc2ccccc2)CC1,-8.9%
O=C(O)CNc1ccc(C(=O)O)cc1,-3.3%
Cc1ccc(OCC(=O)N/N=C\c2cccs2)c([N+](=O)[O-])c1,-23.4%
CCCC[n+]1ccn(C2=C([O-])c3ccccc3C(=O)/C2=N\S(=O)(=O)c2ccccc2)c1,-14.6%
NC(=S)NCCCC(N)C(=O)O (configuration not stated),-24.8%
CCOC(=O)CC1C(=O)NCCN1C(=O)COc1ccc(Br)cc1C (configuration not stated),-13.4%
Cc1cc(C)n(-c2ccc(C(=O)OCC(=O)Nc3ccc([N+](=O)[O-])cc3)cc2)n1,-10.3%
O=c1[nH]c(Cc2ccccc2)nc2scc(-c3ccccc3)c12,-16.7%
CC(=O)c1ccccc1Oc1nc(CN2CCOCC2)nc2scc(-c3cccs3)c12,-4.5%
O=C(c1cc2ccccc2o1)N1CCN=C1SCc1cccc(F)c1,-10.6%
Fc1cccc2sc(N3CCCCC3)nc12,-19.8%
COc1ccc(C2C3=C(CCCC3=O)Nc3nc(C(F)(F)F)nn32)cc1OC (configuration not stated),?
Cc1noc(NS(=O)(=O)c2ccc(NC(=O)c3ccc(Br)o3)cc2)c1C,-11.2%
CCCCCCCCSc1nnc(CSc2nc3nc(C)cc(C)n3n2)o1,-20.8%
Cc1csc(Sc2ccc(C(=O)OCC(=O)Nc3ccc(OC(F)(F)F)cc3)cc2[N+](=O)[O-])n1,-8.3%
NC(=O)CSc1nc2c(sc3ccccc32)c(=O)n1CCCN1CCOCC1,-10.2%
COC(=O)c1c(C)[nH]c(C)c1-c1ccc(C)cc1,-5.7%
O=C(NC1CCCC1)c1cc(-c2cccs2)on1,12.6µM*
CCCCNC(=O)CC(C(=O)N1CCc2ccccc21)n1ccnc1 (configuration not stated),-6.1%
CC(C)Cc1nc(N2CCOCC2)c(C#N)c2c1CCC2,?
S=C(Nc1ccc(Br)cc1)NC1CCCC1,-10.1%
N#CC1=C(N)Oc2ccccc2C12C(=O)Nc1n[nH]c(-c3ccccc3)c12 (configuration not stated),-7.7%
COc1ccccc1NC(=O)c1nn(-c2cccc(C(F)(F)F)c2)ccc1=O,-8.4%
CC(O)CN(Cc1cccc(Cl)c1)CC(C)O (configuration not stated),-8.6%
COc1ccc(C2C(C(=O)N3CCCC3)c3cc(OC)c(OC)cc3C(=O)N2C)cc1OC (configuration not stated),-7.9%
Cc1cc(N2CCOCC2)c2c(N)cc(C)c(C)c2n1,-8.4%
CCOC(=O)c1sc2nc(C)n(CC(=O)NCC3CCCO3)c(=O)c2c1C (configuration not stated),-4.8%
O=C1CCCC2=C1C(c1ccncc1)c1c(nc(SCc3ccccc3Cl)[nH]c1=O)N2 (configuration not stated),?
Cc1cc(O)c2c(c1O)C(=O)c1c(O)cc(C)c(O)c1C2=O,-14.1%
O=C(CCn1c(=O)c2ccccc2n(Cc2cccnc2)c1=O)NCc1ccc2c(c1)OCO2,1.4%
CCCc1nn(C)c(C(=O)Nc2ccccc2)c1Cl,-5.3%
CNC(=S)N1CCN(c2ccc(OC)cc2)CC1,-10.2%
O=C1C(Cl)=C(N2CCCCC2)C(=O)N1Cc1ccccc1,-17.3%
Cc1noc(C)c1COC(=O)C1(c2cccc(F)c2)CCCC1,-2.7%
CCCCCn1cnc2sc(CC)cc2c1=O,-26.5%
CC(C)(C)NC(=O)c1cccc(NC(=O)CSc2ccccc2)c1,-8.4%
CN(C)c1ccc(S(=O)(=O)c2ccc(Cl)cc2)cc1,?
COc1ccccc1NC(=S)N1CCN(Cc2ccc3c(c2)OCO3)CC1,-3.7%
COc1ccc(-c2nnc(NC(=O)c3ccc(F)cc3)o2)cc1,-10.5%
COc1ccc(C(=O)Nc2oc(-c3ccccc3)c(-c3ccccc3)c2C#N)cc1OC,?
OCCNCc1cc(Br)ccc1OCc1ccc(Cl)cc1,-0.7%
Cc1ccc(C2(O)CN(c3ccccc3)C3=[N+]2CCS3)cc1 (configuration not stated),0.2%
Cc1c(CNC(=O)c2cnn3c2NC(c2ccc(Br)cc2)CC3C(F)(F)F)cnn1C (configuration not stated),-4.0%
O=c1[nH]n(-c2cccc(Cl)c2)c2ncccc12,6.31µM*
COc1ccc(/C=N/NC(=O)c2cc(C34CC5CC(CC(C5)C3)C4)[nH]n2)cc1OC,-20.9%
CCn1c(=O)[nH]c2cc(C(=O)N3CCN(c4ccccc4)CC3)ccc2c1=O,-1.8%
CC(C)Oc1ccc(/C(O)=C2/C(=O)C(=O)N(Cc3cccnc3)C2c2ccco2)cc1 (configuration not stated),-17.4%
Nc1ccc(S(=O)(=O)NCc2nccs2)cc1,-9.7%
CC(=N)C1=C(O)CC(C)(C)CC1=O,-6.6%
O=C1CC(N2CCN(S(=O)(=O)c3ccc(Cl)cc3)CC2)C(=O)N1CCc1ccccc1 (configuration not stated),-7.7%
O=C(OCC(=O)c1ccc(Cl)cc1Cl)c1ccc2c(c1)C(=O)N(c1cccc3ncccc13)C2=O,-10.7%
# The results go on.
SMILES,HPGD inh
C/C=C/Cn1c(N2CCCCCC2)nc2c1c(=O)[nH]c(=O)n2C,-17.5%
Cc1cccc(COCC(Cc2ccccc2)N2CCN(C(=O)c3ccc(Cl)c(Cl)c3)CCC2=O)c1 (configuration not stated),-17.4%
CCCOc1ccc(-c2nc(C#N)c(N3CCN(CC)CC3)o2)cc1,?
Cc1ccc(S(=O)(=O)N2CCOCC2)cc1C(=O)OCC(=O)N1CCc2ccccc2C1,-0.5%
CCCOc1cccc(C2/C(=C(/O)c3ccncc3)C(=O)C(=O)N2CCCN(C)C)c1 (configuration not stated),1.7%
CC(=O)N/C(=C\c1ccccc1)C(=O)OCC(=O)NC(C)C12CC3CC(CC(C3)C1)C2 (configuration not stated),-12.8%
O=[N+]([O-])c1ccc(/C=N/Nc2ccc3ccccc3c2)o1,-11.5%
O=C(N/N=C/C(Cl)=C\c1ccccc1)c1cnccn1,-7.0%
Cc1ccc(S(=O)(=O)N2CC3(C)CN(S(=O)(=O)c4ccc(C)cc4)CC(C)(C2)C3)cc1,-5.8%
CCCCCCCCCCCCC/C=C\[C@@H](O)[C@@H](N)CO,1.0%
CCN=C1Cn2c(nc3scc(-c4ccccc4)c3c2=O)CN1CC,-20.2%
CC(C)=CCC/C(C)=C/CO,-9.0%&-12.6%
Cc1cc(C)nc(N(C#N)S(=O)(=O)c2ccccc2Cl)n1,-21.3%
CC(=O)Nc1ccccc1C(=O)N1CC(C)OC(C)C1 (configuration not stated),-7.4%
Cc1ccc2c(c1)C(c1ccc(F)cc1)N(C(=O)C1CC1)CC(=O)N2 (configuration not stated),-8.9%
O=S(=O)(NCc1cc(-c2ccccc2Cl)no1)c1ccccc1,-2.3%
COc1cc(C2C(C(=O)c3ccco3)=C(O)C(=O)N2Cc2cccnc2)cc(OC)c1OC (configuration not stated),-8.6%
CC(=O)NC(Cc1c[nH]c2ccccc12)C(=O)Nc1ccc2c(c1)OCO2 (configuration not stated),-5.9%
CC(=O)NC1(C2CCCCC2=O)CCCCC1 (configuration not stated),-0.4%
C#C[C@]1(O)CCC2C3CCC4=Cc5oncc5C[C@@]4(C)C3CC[C@@]21C (some centres not stated),-16.3%
COc1ccc(NC(=O)Nc2nccs2)cc1,-7.4%
COc1ccc(OCCc2nnc(N)s2)cc1,-8.3%
Cc1cc(C)c(C)c(S(=O)(=O)N2CCN(C(=O)c3cc(=O)[nH]c4ccccc34)CC2)c1C,-6.5%
O=C(N[C@@H](c1ccccc1)[C@@H]1C[C@H]1C(=O)O)OCc1ccccc1,-0.8%&-9.7%
CCC(=O)Nc1nc2c(s1)COc1ccccc1-2,-17.8%
CN1/C(=C\P(=O)(N(C)C)N(C)C)C(C)(C)c2ccccc21,-12.7%
O=C(NCc1ccccc1)c1cnc(-c2ccccn2)nc1C(F)(F)F,-25.0%
O=C(O)c1ccccc1SCc1ccc2c(c1)OCO2,-7.1%
COCc1cc(Sc2ccc(Cl)cc2)nc(-c2ccccc2)n1,-7.8%
CN(C)CCCNCCCCNC(=O)/C=N/O,-7.1%
CCCn1nnnc1SCC(=O)c1ccc(NC(C)=O)cc1,-14.1%
COC(=O)C1=C(C)Nc2ncnn2C1c1ccc(OC(=O)c2ccccc2)cc1 (configuration not stated),-11.1%
O=C(C1CCCO1)N1CCN(C(=S)Nc2ccccc2Cl)CC1 (configuration not stated),-7.5%
Cc1nc2ncnn2c(C)c1CCC(=O)N1CCOCC1,-7.8%
C=CCC(NCCCO)c1cccc(OC)c1OC (configuration not stated),-3.0%
O=C(Nc1ccc2nn(-c3ccccc3)nc2c1)c1ccco1,?
C=CCc1ccccc1OCC(=O)N/N=C/c1ccc(OC(C)=O)cc1OC(C)=O,-25.5%
CCCCCCCCCCCC(=O)O[C@H](CC(=O)O)C[N+](C)(C)C,2.2%
CC(C)C(=O)O/N=C(\N)c1ccccn1,0.9%
CCn1ncc(Cl)c1C(=O)Nc1cc([N+](=O)[O-])ccc1OC,-7.0%
Cc1cc(C)n(CC(O)Cn2c3ccc(Cl)cc3c3cc(Cl)ccc32)c(=O)n1 (configuration not stated),-0.8%

# Screening results as filed in PubChem BioAssay.
